Ecoli growth: inhibitors of Escherichia coli growth; OD600, 23 h; stronger effect = lower value; 330,000 tested, 0.21% active; AID 1053175; OD600 absorbance (test concentration not listed);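 active = OD600 absorbance below the run mean of sample wells minus 3.6 SD, in any replicate, cut at about 0.56 in these data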;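 note: stock transfer was 300 nL into about 60 µL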
LANA-H2B inh: blocks KSHV LANA binding to histone H2A/H2B. AID 2629. inhibition, % (concentration not given with the values). 320,000 tested, 0.6% active. cell-free LANA-H2A/H2B peptide, fluorescence polarization. Q9QR71; in the data active = inhibition mostly above about 10%, no sharp cut-off; inactive = mostly below about 6.7%;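 note: stock transfer was 7.5 nL into about 10 µL; 0% = median of vehicle wells and 100% = median of positive control wells; one replicate is shown; the record names a cut of 25% in any replicate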
Target sequence (Q9QR71 whole entry, looked up): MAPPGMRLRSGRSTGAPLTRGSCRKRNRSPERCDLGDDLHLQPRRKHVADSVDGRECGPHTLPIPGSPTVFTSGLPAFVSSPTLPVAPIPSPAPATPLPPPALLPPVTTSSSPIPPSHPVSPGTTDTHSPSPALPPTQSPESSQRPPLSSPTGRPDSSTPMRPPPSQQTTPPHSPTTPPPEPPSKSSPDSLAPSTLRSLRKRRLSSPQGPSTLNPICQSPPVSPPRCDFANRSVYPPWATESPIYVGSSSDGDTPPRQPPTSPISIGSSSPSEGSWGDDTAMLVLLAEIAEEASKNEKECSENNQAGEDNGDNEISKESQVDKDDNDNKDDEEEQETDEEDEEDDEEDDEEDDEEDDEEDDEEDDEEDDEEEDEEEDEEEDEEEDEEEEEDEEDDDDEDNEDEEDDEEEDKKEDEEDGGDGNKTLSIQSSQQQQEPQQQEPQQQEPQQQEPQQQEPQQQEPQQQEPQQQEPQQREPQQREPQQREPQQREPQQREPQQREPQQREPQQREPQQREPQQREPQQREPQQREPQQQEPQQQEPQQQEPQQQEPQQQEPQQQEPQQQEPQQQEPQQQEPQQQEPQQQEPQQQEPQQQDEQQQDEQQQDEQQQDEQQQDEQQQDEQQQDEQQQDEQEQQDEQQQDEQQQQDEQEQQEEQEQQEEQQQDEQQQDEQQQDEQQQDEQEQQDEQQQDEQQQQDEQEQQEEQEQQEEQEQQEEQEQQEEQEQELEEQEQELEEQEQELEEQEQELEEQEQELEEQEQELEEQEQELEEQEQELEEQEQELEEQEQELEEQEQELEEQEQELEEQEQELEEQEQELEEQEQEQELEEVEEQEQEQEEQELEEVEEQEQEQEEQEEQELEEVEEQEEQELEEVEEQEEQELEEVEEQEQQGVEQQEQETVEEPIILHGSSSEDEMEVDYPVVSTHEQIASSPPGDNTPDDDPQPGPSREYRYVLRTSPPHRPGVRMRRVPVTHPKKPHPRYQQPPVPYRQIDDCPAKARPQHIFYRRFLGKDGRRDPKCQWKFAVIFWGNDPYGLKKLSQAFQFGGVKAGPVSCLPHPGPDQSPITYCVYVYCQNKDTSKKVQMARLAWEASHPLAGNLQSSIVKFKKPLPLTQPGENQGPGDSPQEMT
Vif TR-FRET: HIV-1 Vif–A3G interaction blockers – biochemical, TR-FRET, GST-Vif 1-94, biotin-A3G peptide, dose response retest, primary screen (AID 1117319); inhibition, %, or IC50 in µM where a hit was titrated; 260,000 tested, 0.57% active; TR-FRET GST-Vif / biotin-A3G peptide binding; higher % means a stronger effect; test concentration not given here; strong numbers were not always called active;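 active = above the screen mean plus three standard deviations and confirmed in dose response; inconclusive = results disagree or hit not tested in dose response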;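 note: Vif residues 1-94 fused to GST binding biotinylated APOBEC3G peptide 110-148; 0% = full assay without inhibitor and 100% = GST in place of GST-Vif; retest series ran down from 100 µM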
A1 inh: inhibitors of the anti-apoptotic protein A1, read as caspase activation. MEF A1-2A-BIM cells, Caspase-Glo 3/7 luminescence, 3 h; percent of clofoctol response, vehicle zero. caspase activation, % (no concentration beside the values). 330,000 tested, 0.066% active;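 active = over half of replicate activation scores above 10%, or exactly half above 10 with the replicate mean above 10; inconclusive = replicate mean below 10 yet half the replicates above 10; inactive = over half of replicates below 10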;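 note: wells of about 30 µL received 50 nL stock; many hits fall short of the cut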
HNF4A DNA FP: change in binding of human HNF4 alpha to DNA | P41235 | HNF4a-FITC DNA binding, fluorescence polarization, 1 h | activity change, % at 10 µM | 360,000 tested, 0.3% active | AID 1224865; in the data active = activity change above about 30%, passing the limit was not always enough;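 note: controls were the assay level and a saturating level of protein; the project sought stronger binding though the title names inhibitors; some compounds called inactive have numbers as strong as hits; positive values seem to mean higher polarization but the record does not say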
UCH37 DUB inh: blocks the human deubiquitinase UCH37; purified proteasome/UCH37, Ub-AMC cleavage fluorescence; 330,000 tested, 0.33% active; Q9Y5K5; inhibition, % (test concentration not listed); AID 588478;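 active = mean of two replicates above 20%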;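 note: 0% = compound-free wells with enzyme and 100% = wells lacking proteasome; stock transfer was 100 nL into about 20 µL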
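Material: human UCH37 enzyme supplied as purified proteasome complex. Measure: % inhibition of Ub-AMC cleavage fluorescence. Medium: pH 7.4 Tris-HCl (50 mM) with ovalbumin, ATP-MgCl2, DTT. Times: 30 min preincubation with enzyme, 25 min cleavage at room temperature. Detection: AMC fluorescence intensity at 355/460 nm.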
Beta2AR agonist: activates human beta-2 adrenergic receptor causing internalization; response, % (concentration not given with the values); P07550; 340,000 tested, 0.43% active; Am2.2-beta2AR cells, FAP receptor internalization, flow cytometry; reference of the scale not given here;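 active = response above a set limit, near 3 SD of response in nonfluorescent compounds, cut at about 42% in these data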;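 note: stock transfer was 100 nL into about 11 µL; a reference agonist was the positive control; negative values mostly stem from fluorescent compounds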
The depositor's hits bear a star; i = inactive; u = inconclusive; x = no result given.

SMILES	Ecoli growth	LANA-H2B inh	Vif TR-FRET	A1 inh	HNF4A DNA FP	UCH37 DUB inh	Beta2AR agonist
COc1ccc(/C=N/Nc2nc(-c3ccc(C)cc3)c(C#N)c(=O)[nH]2)cc1	x	9.7	-4%	-0.1	8.1	x	4
Cc1cccc(NC(=O)COc2coc(CN3CCN(c4ccccc4)CC3)cc2=O)c1C	0.69	6.4	8%	-0.5	-5.3	0.4	-2
CCc1noc(C)c1C(=O)N(C)CC(=O)Nc1ccc(F)c(F)c1F	0.69	3.0	5%	0.6	-2.7	0.3	1
COc1cc(OC)cc(C(=O)N[C@H](C(=O)Nc2nc3ccccc3[nH]2)C(C)C)c1	0.69	x	29%	x	1.4	1.7	18
O=C(COC(=O)c1ccccc1Nc1ccccc1)Nc1ccccc1	0.75	0.1	x	0.1	-1.8	-45	-1
CC(=O)c1cc(C#N)c(SCc2ccc(F)cc2)nc1C	0.79	-3.3	-46%	0.1	-1.7	0.1	14
CCCCn1c(N)c(N(CCC)C(=O)C2CCCC2)c(=O)[nH]c1=O	0.68	x	x	x	-0.1	0.3	-1
COc1ccccc1C(=O)C1CCCN(C(=O)Nc2ccccc2F)C1 (stereo not drawn)	0.7	-0.1	18%	-0.3	2.4	0.3	-2
COc1ccc(C(=O)NCCSCc2ccco2)cc1OC	0.69	9.3	5%	-0.3	-2.2	1.9	2
Cc1cc(C(=O)Nc2ccc3c(c2)OCCO3)c(C)o1	0.71	7.1	-9%	-13	-3.9	2.6	-6
CCN(CC)CCC(=O)Nc1cccc2c1C(=O)c1ccccc1C2=O	x	-3.9	4%	-0.3	-100	x	-79
Cc1cc(C(=O)OCC(=O)N2CC(=O)Nc3ccccc32)c(C)n1-c1ccccc1	0.71	6.2	x	0.8	0.2	6.2	-2
O=C(CSc1ccccc1)N1CCCC(Nc2ccccc2)C1 (stereo not drawn)	0.71	2.2	x	0.2	0.9	-1.6	-1
Cc1nc2nc(CSc3ccc(Cl)cc3)cc(=O)n2[nH]1	0.72	-1.3	4%	-0.1	19	-1.7	-11
CNC(=O)c1ccsc1NC(=O)c1ccc2c(c1)CCCC2	0.73	-3.4	1%	-2.9	4.6	-31	-10
CC[C@]12c3[nH]c4ccc(Cl)cc4c3CCN1C(=O)[C@@H](CC(=O)NCc1cccc(C(F)(F)F)c1)C[C@@H]2C(=O)N1CCN(C(=O)c2ccco2)CC1	0.7	x	x	x	-4.5	-1.3	-1
O=C(NCc1cccc(CNC(=O)C(=O)NCC2CCCO2)c1)C(=O)NCC1CCCO1 (stereo not drawn)	x	6.4	-9%	0.3	-5.4	x	-7
COc1cccc(CSc2nnc(-c3ccc(F)cc3)o2)c1	0.66	-9.6	-4%	0.3	-1.6	1.2	-16
C=CCOC(=O)C(C#N)c1nc2ccccc2nc1N1CCC(C(=O)OCC)CC1 (stereo not drawn)	0.73	-0.5	23%	-0.9	5.6	-2.5	-19
CN(C)CCCN(Cc1ccccc1)C(=S)Nc1ccc(SC(F)F)cc1	0.73	-2.9	-3%	0.2	-2.0	4.0	9
CCc1cc(C(=O)N2CCN(c3ncc(C(F)(F)F)cc3Cl)CC2)sc1C	0.69	-14	x	0.8	-0.9	1.3	-2
Cc1oc2ccc(NS(=O)(=O)c3ccc(F)cc3)cc2c1C(=O)O	0.67	-3.3	x	1.5	-0.6	2.5	-9
COC(=O)C1C(=O)c2c([nH]c(C(=O)OC3CCCCCC3)c2C)CC1C (stereo not drawn)	0.75	7.1	1%	-0.7	4.0	0.6	6
O=C(O)CSc1cc(NS(=O)(=O)c2ccc(Br)cc2)c2ccccc2c1O	x	1.5	x	-0.3	0.0	x	7
Cc1cc(C)n2cc(CSc3nc4cc(Cl)ccc4o3)nc2n1	0.66	4.3	3%	-0.3	-3.4	-3.6	-14
CCCCN1C2=NC(c3ccccc3)CN2c2ccccc21 (stereo not drawn)	0.69	-0.8	x	0.1	5.5	6.4	-5
Cc1c(NC(=O)c2cc3ccccc3o2)c(=O)n(-c2ccccc2)n1C	0.66	-1.7	u	0.2	1.2	1.4	-7
CC(C)(C)n1nnnc1C(c1cccnc1)N1CCN(c2ccccn2)CC1 (stereo not drawn)	0.68	-2.0	-1%	0.2	-3.6	-0.3	-1
CSc1ncccc1C(=O)OCC(=O)NC(C)CCc1ccccc1 (stereo not drawn)	0.71	1.2	x	-1.7	-3.2	4.2	-7
COc1ccc(C2=NOC(C)(c3nnc(-c4ccc(Cl)cc4)o3)C2)cc1 (stereo not drawn)	0.67	-2.1	x	-0.5	3.0	0.7	-5
Cc1ccc(OCc2nnc(SCC(=O)Nc3ccc4c(c3)OCCO4)n2Cc2ccco2)cc1	0.73	-6.0	14%	-0.5	3.0	1.8	-1
CC(=O)Nc1ccc(C(=O)NCCCSc2ccccc2)cc1	0.72	7.3	-6%	0.9	1.3	5.6	-3
COc1ccc(NC(=O)C2=CC(c3ccc(C)cc3)=NS(=O)(=O)N2C)cc1OC	0.69	-4.4	x	0.2	0.3	5.0	4
CCc1c(C)[nH]n(-c2ccc(Oc3ccccc3)c(S(=O)(=O)O)c2)c1=O	0.69	-4.0	8%	0.6	-13	4.0	0
O=C(O)CNC(=S)N(Cc1ccccc1Cl)C1CCCC1	0.63	1.8	-9%	-0.1	-1.6	-0.4	1
COc1ccc(-n2c(=O)[nH]cc(C(=O)N3CCc4ccccc43)c2=O)cc1	0.67	9.1	64%	-0.2	1.2	-1.1	3
Cc1cc(NS(=O)(=O)c2ccc(NC(=O)CCc3ccccc3)cc2)no1	0.74	3.4	5%	0.1	1.8	-5.0	1
O=C(CN1C(=O)c2ccccc2S1(=O)=O)N1CCCCC1	0.64	-1.6	28%	-0.1	-2.9	0.2	-3
CC(SCc1ccccc1)C(=O)NN=C1CCN(C)CC1 (stereo not drawn)	0.68	6.1	25%	0.0	1.3	3.8	18
COc1cccc(NC(=O)C2CC2)c1	0.68	-0.2	x	0.9	-3.1	1.2	-4

Part of the list above, as labelled records.
Cc1cc(NS(=O)(=O)c2ccc(NC(=O)CCc3ccccc3)cc2)no1
  Ecoli growth: 0.74; LANA-H2B inh: 3.4; Vif TR-FRET: 5%; A1 inh: 0.1; HNF4A DNA FP: 1.8; UCH37 DUB inh: -5.0; Beta2AR agonist: 1

Cc1cccc(NC(=O)COc2coc(CN3CCN(c4ccccc4)CC3)cc2=O)c1C
  Ecoli growth: 0.69; LANA-H2B inh: 6.4; Vif TR-FRET: 8%; A1 inh: -0.5; HNF4A DNA FP: -5.3; UCH37 DUB inh: 0.4; Beta2AR agonist: -2

CCCCN1C2=NC(c3ccccc3)CN2c2ccccc21 (stereo not drawn)
  Ecoli growth: 0.69; LANA-H2B inh: -0.8; Vif TR-FRET: x; A1 inh: 0.1; HNF4A DNA FP: 5.5; UCH37 DUB inh: 6.4; Beta2AR agonist: -5

Carrying on.
SMILES	Ecoli growth	LANA-H2B inh	Vif TR-FRET	A1 inh	HNF4A DNA FP	UCH37 DUB inh	Beta2AR agonist
CSc1ccc(/C=N/n2nnnc2N)cc1	x	-1.5	0%	-1.3	1.6	x	-4
Cc1cc(C)cc(NC(=O)CN2C(=O)COc3ccc(S(=O)(=O)N4CCCC4)cc32)c1	0.68	-4.9	1%	0.0	-4.8	2.4	-3
COC(=O)CSc1nnc(C)n1-c1cccc(C#N)c1	0.61	-4.8	u	0.3	-0.2	0.8	-6
Cc1cccc(-c2noc(CN(C(=O)c3c(-c4ccccc4Cl)noc3C)C(C)C)n2)c1	0.78	-2.1	2%	0.9	-3.5	4.2	-2
O=C(CCCc1nc(-c2ccc(Cl)cc2)no1)NC1CCCC1	0.7	2.6	x	-0.4	-1.7	2.0	-5
Oc1ccc(/C=N/n2c(-c3ccccc3)n[nH]c2=S)cc1Br	x	-2.9	4%	0.3	-2.5	x	7
COc1ccc(NC(=S)NCC(O)c2ccccc2)c(OC)c1 (stereo not drawn)	0.69	-6.4	x	0.5	1.0	3.8	7
CCOC(=O)COc1cc(N2C(=O)CSCC2=O)c(Cl)cc1Cl	0.66	7.1	1%	-0.1	-1.2	3.6	0
Clc1ccccc1-c1nnc2sc(-c3cccs3)nn12	0.7	0.2	-6%	0.4	0.4	-0.3	-1
Cc1ccc(N(CC(=O)NCC2CCCO2)S(=O)(=O)c2ccccc2)c(C)c1 (stereo not drawn)	0.64	2.5	x	0.4	1.3	1.0	13
Cc1cc[n+](CCC(=O)O)c2ccccc12	0.71	1.8	28%	0.0	-5.3	-1.8	0
CC(C)c1ccc(S(=O)(=O)N2CCN(C(=O)C3CCN(C(=O)c4ccc(F)cc4)CC3)CC2)cc1	x	1.9	x	-0.4	2.6	x	3
CC1=NC(C)(C)CC2CCC(O)C12 (stereo not drawn)	0.7	x	-2%	x	1.1	1.9	-3
COC(=O)c1ccc(/C=N/NC(=O)c2ccccc2Cl)cc1	x	3.5	18%	-1.7	1.2	x	2
Cn1nccc1C(=O)N1CCCC(Nc2ccc(F)cc2)C1 (stereo not drawn)	0.68	-1.5	x	1.2	2.6	1.4	3
CCCC(O)(CCN(C)C)c1ccc(OC)cc1 (stereo not drawn)	0.73	-0.1	4%	0.9	-1.6	1.9	-5
CCNc1ccc(S(=O)(=O)N(C)C)cc1NCC(=O)Nc1ccccc1F	0.6	0.0	-3%	-0.5	0.7	2.4	1
CN1CCCC(OC(=O)COc2ccccc2)C1 (stereo not drawn)	0.67	-7.1	u	1.0	-0.7	-0.1	-9
Nc1[nH]n(-c2ccccc2)c(=O)c1N=Nc1ccccc1[N+](=O)[O-]	0.68	2.0	6%	-6.8	2.0	3.7	-8
CCN1C(=O)/C(=C/N(C)C)c2ccccc21	0.64	2.3	3%	-0.4	-1.2	8.2	11
C[N+]1(C)CCCC(OC(=O)C(O)(c2ccccc2)c2ccccc2)C1 (stereo not drawn)	0.66	0.9	x	-0.7	-1.0	6.2	-14
CCn1c(C)nc2cc(C(=O)N=Nc3c(O)[nH]c4c(C)cc(C)cc34)ccc21	0.71	4.5	-6%	0.2	x	0.0	x
O=C(NCCCCCCOC1=NS(=O)(=O)c2ccccc21)C(=O)Nc1ccccc1	0.69	1.9	7%	0.2	-2.7	1.9	-5
CN(Cc1ccncn1)C(=O)CC1C(=O)NCCN1Cc1cccc(Oc2ccccc2)c1 (stereo not drawn)	0.68	-4.1	2%	0.2	-2.2	6.0	-14
CCCCn1c(N)c(N(CC(C)C)C(=O)CCS(=O)(=O)c2ccc(C)cc2)c(=O)[nH]c1=O	0.66	-1.4	-5%	0.5	3.4	4.2	-1
COc1cccc(C(=O)NC(=O)Nc2nc(C)cc(C(F)(F)F)n2)c1	0.65	x	x	x	-3.4	0.4	-4
CN(CC(=O)Nc1ccc2c(c1)CCC2)CC(=O)Nc1ccccc1Br	0.67	1.1	u	0.2	1.1	1.9	0
O=C(NCC1CCCO1)c1cc(-c2ccco2)nc2ccccc12 (stereo not drawn)	0.7	9.1	14µM*	-1.8	-10	i	2
CC1CCN(C(=O)CSc2nnc(-c3ccc(S(=O)(=O)N4CCOCC4)cc3)n2C)CC1	0.65	-4.0	u	1.0	-0.3	1.2	10
CSCCC(=O)N1CCC(n2nccc2NC(=O)CCCc2ccccc2)CC1	0.73	-2.7	-2%	-0.9	0.5	1.5	-5
COc1ccc(/C=C/c2c(-c3ccc(OC)cc3)oc3ccc(-c4ccc(OC)cc4)cc23)cc1	x	-5.1	x	0.3	2.0	-195	5
O=C1c2cc([N+](=O)[O-])ccc2-c2cc(Cl)c(NC(=O)C(F)(F)F)cc21	0.71	x	-5%	x	23	-1.4	4
N#CCC(=O)Nc1ccc(C(=O)OCC(=O)NCCCc2ccccc2)cc1	0.69	4.9	3%	-0.7	0.2	5.0	-15
COc1ccc(/C=C2\SC(=S)N(CCCC(=O)N3CCCCC3CCO)C2=O)cc1 (stereo not drawn)	0.61	3.7	x	0.4	-0.1	4.6	1
